KCNQ2 pot: potentiators of rat KCNQ2 potassium channel. Potassium voltage-gated channel subfamily KQT member 2 (Rattus norvegicus), O88943. B-score at 10 µM. actives 0.54% (n = 310,000). CHO-K1 KCNQ2, FluxOR thallium flux fluorescence; stronger effect = higher value;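 active = fluorescence ratio B-score at least 3 SD of library B-scores, with initial fluorescence B-score within 3 SD, cut at about 5.3 in these data; same plate scores as AID 2156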;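 also: B-score of peak minus minimum over baseline fluorescence ratio after K+ and Tl+ stimulus; positive B-score means potentiation of KCNQ2 with more thallium influx and brighter signal; only the inactives scoring about 0 or higher are listed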
Target sequence (O88943 whole entry, looked up): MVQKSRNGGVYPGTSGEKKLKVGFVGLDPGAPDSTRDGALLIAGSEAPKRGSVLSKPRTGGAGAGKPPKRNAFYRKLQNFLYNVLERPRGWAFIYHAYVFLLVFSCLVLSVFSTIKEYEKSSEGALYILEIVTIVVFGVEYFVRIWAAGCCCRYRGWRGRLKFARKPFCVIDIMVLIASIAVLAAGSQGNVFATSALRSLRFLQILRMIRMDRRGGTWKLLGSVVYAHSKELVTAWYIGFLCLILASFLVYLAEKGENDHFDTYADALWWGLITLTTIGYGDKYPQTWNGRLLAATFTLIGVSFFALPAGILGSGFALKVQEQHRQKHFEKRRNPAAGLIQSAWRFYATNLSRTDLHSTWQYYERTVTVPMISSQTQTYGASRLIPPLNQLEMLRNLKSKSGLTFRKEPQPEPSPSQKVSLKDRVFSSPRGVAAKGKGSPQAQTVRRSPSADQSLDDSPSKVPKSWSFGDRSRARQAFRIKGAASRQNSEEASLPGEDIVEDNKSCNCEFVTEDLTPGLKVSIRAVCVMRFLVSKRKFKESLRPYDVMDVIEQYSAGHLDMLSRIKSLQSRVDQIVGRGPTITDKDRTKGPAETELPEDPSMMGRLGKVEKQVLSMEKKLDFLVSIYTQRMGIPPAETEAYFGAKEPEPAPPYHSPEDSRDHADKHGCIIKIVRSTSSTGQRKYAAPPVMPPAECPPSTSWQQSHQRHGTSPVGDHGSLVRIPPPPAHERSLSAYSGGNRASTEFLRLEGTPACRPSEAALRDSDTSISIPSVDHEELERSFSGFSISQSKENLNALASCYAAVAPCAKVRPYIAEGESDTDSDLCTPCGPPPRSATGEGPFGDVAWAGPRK
KCNQ2 pot baseline: further read-out of KCNQ2 pot, marked with its call; B-score; compound at 10 µM; measured here: initial fluorescence intensity artifact check;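 brightness before thallium and not channel activity; 0 = typical well and far values either way flag optical interference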
* marks the source's active call; other numbers are inactive results.

nr | Compound | KCNQ2 pot | KCNQ2 pot baseline
1 | Cc1ccc(N2CCCCn3c2nc2c3c(=O)[nH]c(=O)n2C)cc1 | 0.68 | 0.23
2 | Cc1cccc(C)c1OCC(C)N (configuration not stated) | 0.03 | -0.22
3 | Cc1cnc(=O)[nH]c1SCc1ccc([N+](=O)[O-])cc1 | 0.42 | -0.03
4 | Cc1ccc(/C=N/NC(=O)c2cc(-c3ccccc3)nc3ccccc23)o1 | 0.13 | -1.2
5 | O=C(C1CCCN1S(=O)(=O)c1cccc2cccnc12)N1CCn2c1nc1ccccc12 (configuration not stated) | 1.4 | -0.14
6 | CCc1nnc(NC(=O)Nc2ccccc2OC)s1 | 0.32 | 0.37
7 | c1ccc(-c2csc(Nc3ncccn3)n2)cc1 | 0.45 | 0.42
8 | COc1ccc(N2CCN(c3nc4c(C)cccn4c(=O)c3/C=C(\C#N)C(N)=O)CC2)cc1 | 0.33 | 0.59
9 | Cc1ccc(NC(=O)c2ccc(OC(=S)N3CCOCC3)cc2)cc1 | 1 | -1
10 | COc1ccc(-c2nnc(SCC(=O)N3CCCC3)o2)cc1 | 0.89 | 1.4
11 | N/C(=N\OC(=O)CSc1ccccc1)c1ccncc1 | 0.14 | 0.43
12 | N#Cc1ccc(CSc2nnc3[nH]c(=O)cc(N)n23)cc1 | 1.8 | 1.9
13 | CN(C)S(=O)(=O)c1ccc(C(=O)NCCOc2ccc(F)cc2)cc1 | 0.53 | 1.3
14 | O=C(NCCN1CCCCC1)c1ccc2c(c1)OCCO2 | 0.16 | 0.39
15 | CC(=O)Nc1ccc(N(C(=O)CNC(=O)c2ccco2)C(C(=O)NCc2ccco2)c2ccccc2)cc1 (configuration not stated) | 0.29 | 0.67
16 | COc1ccc(OC)c(C2=NOC(C(=O)NCc3cccs3)C2)c1 (configuration not stated) | 1 | -1.9
17 | O=C(NCc1ccco1)c1cc2nc(C3CC3)cc(C(F)(F)F)n2n1 | 0.43 | -0.21
18 | Cc1sc(-c2ccccn2)nc1OC(=O)c1cccc(Cl)c1Cl | 1.2 | 0.69
19 | CCN1C(=O)N(CC)C2C1N(C(C)=O)C(=O)N2C(C)=O (configuration not stated) | 0.51 | -0.76
20 | COc1ccccc1-c1nnc(NC(=O)c2ccc(S(=O)(=O)N3CCOCC3)cc2)o1 | 0.79 | -1.4
21 | CCOC(=O)c1ccc(-c2ccc3c(c2)CCC3)nc1C | 0.27 | -0.01
22 | Cc1cc(C(F)(F)F)nn1CC(=O)NCc1ccccc1 | 0.15 | 0.02
23 | CSCC[C@H](NC(=O)c1cccs1)C(=O)N1CCC2(CC1)NCCc1[nH]cnc12 | 1.7 | 0.01
24 | Cc1ccc(CSc2nnc(-c3ccncc3)o2)c(C)c1 | 0.32 | -0.89
25 | O=CNC(Cc1ccccc1)C(=O)O (configuration not stated) | 0.98 | -0.31
26 | NNC(=O)COc1ccc(F)cc1 | 0.75 | -0.45
27 | COCCn1c(C)cc(C(=O)CSc2nc3ccccc3c(=O)n2C(C)COC)c1C (configuration not stated) | 0.29 | -0.47
28 | Cc1cc(C(=O)Nc2ccc3c(c2)OCCO3)c2ccccc2n1 | 0.61 | 0.24
29 | COc1cc(NC(=O)c2onc(C)c2Cl)c(OC)cc1Cl | 1.7 | 0.3
30 | COc1ccc2c(CC(=O)Nc3cccc(S(=O)(=O)N4CCOCC4)c3)coc2c1 | 2 | -0.36
31 | CCN1CCN(C(c2ccccc2)c2nnnn2Cc2ccccc2)CC1 (configuration not stated) | 0.35 | -2.3
32 | CC(=O)N1CCN(c2ccc(NCc3cccc4ccccc34)cc2)CC1 | 2.1 | 0.24
33 | Cc1cc(=O)n2c(nc3ccccc32)[nH]1 | 0.87 | 0.55
34 | COc1ccc(C(=O)NCc2nnc(SCC(=O)NC3=NCCS3)n2C)cc1 | 0.6 | -0.12
35 | Cc1cccc(C2N(c3ccc(F)cc3)C(=O)C3CCCN32)c1 (configuration not stated) | 0.56 | -1.6
36 | CCC1(c2ccccc2)NC(=O)N(CC#N)C1=O (configuration not stated) | 0.63 | 0.57
37 | O=C(Nc1ccccc1OC(F)F)c1ccc(S(=O)(=O)N2CCOCC2)cc1 | 0.26 | -1.7
38 | Cc1cc(C)c(C)c(S(=O)(=O)NCC(=O)Nc2sc3c(c2C(N)=O)CCCC3)c1C | 0.04 | 1.1
39 | CCc1ccc(Nc2cc(=O)n(C3CCCCC3)c(=O)[nH]2)cc1 | 0.04 | 0.24
40 | COc1ccc(OC)c2sc(NC(=O)c3cccc(N4C(=O)CCC4=O)c3)nc12 | 0.96 | -0.17
41 | Brc1ccc2c(c1)C(C1=NCCN1)c1ccccc1CS2 (configuration not stated) | 0.01 | 0.37
42 | CCn1c(N2CCC(C)CC2)nc2c1c(=O)n(C)c(=O)n2C | 0.32 | 0.68
43 | Cc1ccc(C(=O)N2CCC(n3nccc3NC(=O)c3ccccc3C)CC2)cn1 | 0.01 | 0.37
44 | CCCC(C)C(=O)Nc1cccc(NC(C)=O)c1 (configuration not stated) | 0.93 | 0.33
45 | COC(=O)c1ccc(COc2ccc(CNCc3ccc(Cl)cc3)cc2)cc1 | 0.95 | 1
46 | CC(C)c1ccccc1NC(=O)COc1ccc(C(=O)NCCc2ccccc2)cc1 | 0.18 | -1.2
47 | NS(=O)(=O)c1ccc(-c2ccc(/C=C3\SC(=O)NC3=O)o2)cc1 | 0.24 | 1.1
48 | C=CCNc1nc(N)c([N+](=O)[O-])c(Nc2ccccc2OC)n1 | 0.73 | 0.15
49 | CC(C)NC(=S)N/N=C/c1cc(Br)ccc1O | 1.4 | -1.3
50 | O=C(Nc1nc(-c2ccco2)c(-c2ccco2)s1)C1CC(=O)N(c2ccc3c(c2)OCCO3)C1 (configuration not stated) | 0.01 | 0.67
51 | CC(=O)c1nn(-c2ccc(C(F)(F)F)cc2)c(=O)[nH]c1=O | 0.95 | 0.22
52 | CCOc1ncccc1C(=O)NNC(=O)c1cccc(S(=O)(=O)Nc2ccc(OC)cc2)c1 | 2 | 0.94
53 | Cc1cc(C)cc(Oc2nn[nH]n2)c1 | 0.88 | 0.45
54 | Fc1ccc(Nc2ccc(-c3ccc(F)cc3)nn2)cc1 | 1.3 | 0.79
55 | CCN(CC(O)COc1ccc(OCC(O)CN(CC)C2CCCCC2)cc1)C1CCCCC1 (configuration not stated) | 0.56 | -1.4
56 | Cc1occc1-c1n[nH]c(=S)n1-c1ccccc1 | 0.88 | 0.06
57 | CCOc1ccc(NC(=O)CN2CCN(CC(=O)Nc3ccc(OC)cc3OC)CC2)cc1 | 1.3 | -0.02
58 | Cc1ccc2c(C)c(C(=O)N3CCCC(C(N)=O)C3)oc2c1C (configuration not stated) | 0.55 | -0.79
59 | CSc1ccccc1OCc1cc(C(=O)NC2CCOC(C)(C)C2)no1 (configuration not stated) | 2.1 | -1.1
60 | COc1ccc(NC(=O)C2CCCO2)cc1OC (configuration not stated) | 1.8 | 0.53

Further structures
nr | Compound | KCNQ2 pot | KCNQ2 pot baseline
61 | CCCCN(C(=O)c1ccccc1OCc1ccc(F)cc1)c1c(N)n(CCC)c(=O)[nH]c1=O | 1.8 | -0.67
62 | CNC(=S)Nc1cccc(S(=O)(=O)NC2=NCCC2)c1 | 0.61 | 0.02
63 | COc1cccc(C2/C(=C(\O)c3ccc4c(c3)OCO4)C(=O)C(=O)N2CCN(C)C)c1OC (configuration not stated) | 0.15 | -1.2
64 | Cc1cc(OC(C)C(=O)NCCN2CCOCC2)c2c(C)c(C)c(=O)oc2c1 (configuration not stated) | 0.15 | -1.1
65 | COC(=O)c1cc(C(=O)OC)cc(-n2c(C)cc(C=O)c2C)c1 | 0.07 | -0.98
66 | CC(=O)Nc1nc2ccccc2n1Cc1ccccc1 | 1.9 | 0.53
67 | Cc1c(CNCCc2ccccc2)c(C(=O)O)c(C)n1-c1ccccc1 | 0.26 | 1.6
68 | O=C(NC1CC1)c1cccc(Oc2ccccc2)c1 | 0.69 | 4.4
69 | COc1ccccc1NC(=O)CCSc1nc(C)cs1 | 2 | -0.07
70 | Cc1nc(-c2ccccn2)sc1C(=O)Nc1ccc(F)cc1 | 0.84 | -0.68
71 | CCOC(=O)c1cc(-c2ccco2)nc2c1c(C)nn2CCC#N | 0.41 | -1.9
72 | C=C(C)c1cccc(C(C)(C)NC(=O)Nc2ccc(C)cn2)c1 | 1.6 | -1.2
73 | CCOC(=O)C1(CCOc2ccccc2)CCN(Cc2nccn2CC)CC1 | 2 | -1.7
74 | COCC(=O)Nc1ccc([N+](=O)[O-])cc1C | 1.1 | 0.11
75 | O=c1[nH]c2ccccc2n2c(=S)[nH]nc12 | 1.6 | -0.34
76 | CC(C)OC(=O)CCCNc1ccc([N+](=O)[O-])cc1[N+](=O)[O-] | 0.07 | 0.43
77 | O=C(COC(=O)C1CCN(S(=O)(=O)c2cccc3cccnc23)CC1)c1ccccc1 | 0.98 | -0.59
78 | COc1cc(/C=C/C(=O)OCC(=O)Nc2ccc3c(c2)OCCO3)ccc1OCC#N | 1.7 | 3.2
79 | Cc1ccc(C2/C(=C(\O)c3cnn(-c4ccccc4)c3C)C(=O)C(=O)N2CCN(C)C)o1 (configuration not stated) | 2.1 | -0.04
80 | COc1ccc(CCN(C)CCC(=O)Nc2c(C)cc(C)cc2C)cc1OC | 0.76 | -1
81 | CC1CCCN(C(=O)C2CC(=O)N(c3ccc(Cl)cc3)C2)C1 (configuration not stated) | 0.13 | 0.88
82 | COc1ccc(C(=O)Nc2c3c(nn2-c2cccc(Cl)c2)CS(=O)C3)cc1 (configuration not stated) | 0.08 | 0.02
83 | CN(CC(=O)N1CCCCCC1)S(=O)(=O)c1ccc(F)cc1 | 0.02 | 0.42
84 | COC(=O)c1cccc(CSc2nnc(C)s2)c1 | 0.24 | 2.2
85 | Cc1c(C(=O)N2CCOCC2)sc2nc(-c3ccccc3)cn12 | 0.96 | 0.1
86 | CCCCCCN(C(=O)CCCCCN1C(=O)NC(c2ccc(-c3ccccc3)cc2)C(C(=O)OCc2ccccc2)=C1C)C(C(=O)NCCCC)c1ccccc1 (configuration not stated) | 0.76 | -0.45
87 | CCCCCc1ccc(-c2ccc(OCC)cc2)nc1 | 0.54 | -0.96
88 | CCOC(=O)C1CCN(C(=O)COC(=O)c2ccc(Br)o2)CC1 | 1.1 | -0.82
89 | COc1cccc(C(C)NC(=O)Nc2cccc(C(F)(F)F)c2)c1 (configuration not stated) | 1.6 | 1.3
90 | COc1cc2cc(CN(Cc3ccc4c(c3)OCO4)C(=O)c3ccco3)c(=O)[nH]c2cc1OC | 0.54 | -1.1

Among those listed so far, these contain bromine:
nr | Compound | KCNQ2 pot | KCNQ2 pot baseline
41 | Brc1ccc2c(c1)C(C1=NCCN1)c1ccccc1CS2 (configuration not stated) | 0.01 | 0.37
49 | CC(C)NC(=S)N/N=C/c1cc(Br)ccc1O | 1.4 | -1.3
88 | CCOC(=O)C1CCN(C(=O)COC(=O)c2ccc(Br)o2)CC1 | 1.1 | -0.82

(next part)
nr | Compound | KCNQ2 pot | KCNQ2 pot baseline
91 | Cc1cc(C(C#N)c2ccccc2F)n2ncnc2n1 (configuration not stated) | 0.62 | -0.96
92 | Cc1cccc(N=C2NC(=O)c3cc([N+](=O)[O-])ccc32)c1 | 0.42 | -1.2
93 | Cc1ccnn1CCSCC(=O)O | 0.3 | -1.3
94 | CC(C)c1cc(CN2CCN(CCC#N)CC2)cc(C(C)C)c1O | 0.01 | -0.01
95 | CS(=O)(=O)Nc1ccc(C(=O)N2CCCC2)cc1 | 0.03 | -2.6
96 | O=C(Nc1cccc([N+](=O)[O-])c1)C1CC(=O)N(Cc2ccccc2)C1 (configuration not stated) | 0.56 | -2
97 | COc1ccc(Nc2nc(N)nc(CSc3nnc(N)s3)n2)cc1 | 1.8 | -0.24
98 | CCc1noc(C)c1C(=O)Nc1ccc(C(F)(F)F)cc1 | 0.47 | -0.22
99 | COc1cccc(/C=C2\SC(=S)N(C(C(=O)O)c3ccccc3)C2=O)c1OC (configuration not stated) | 3.4 | -1
100 | Nc1ncc(Br)cc1S(=O)(=O)NCCC(=O)N1CCN(c2ccccn2)CC1 | 1.6 | 1.4
101 | Cn1nc(OC(=O)Nc2ccccc2)cc1C(F)(F)F | 0.39 | -0.05
102 | CCOC(=O)CSc1nc(N)nc(C)c1Cl | 1.4 | 0.58
103 | CSc1ccccc1NC(=O)Cn1c([N+](=O)[O-])cnc1C | 0.27 | -0.14
104 | CC(=O)N1CCN(Cc2nc3cc(Cl)ccc3c(=O)[nH]2)CC1 | 0.37 | -2.2
105 | O=C(NCCCN1CCOCC1)c1ccc2nc(Cc3cccc(Cl)c3)oc2c1 | 1.7 | -1.4
106 | Cc1nc2sc(C(c3cccc(F)c3)N3CCCC(C)C3)c(O)n2n1 (configuration not stated) | 0.5 | 0.03
107 | O=C(O)COc1ccc(/C=C/c2ccc3cccc([N+](=O)[O-])c3n2)cc1 | 0.91 | -0.05
108 | Cn1cc([N+](=O)[O-])c(C(=O)N(Cc2ccccc2)Cc2ccccc2)n1 | 0.29 | -2.4
109 | Cc1ccc(SCC(=O)Nc2ccc(N3CCOCC3)cc2)c(C)c1 | 0.81 | 0.97

6 of the entries above in order of their number in KCNQ2 pot, rising.
nr | Compound | KCNQ2 pot | KCNQ2 pot baseline
95 | CS(=O)(=O)Nc1ccc(C(=O)N2CCCC2)cc1 | 0.03 | -2.6
108 | Cn1cc([N+](=O)[O-])c(C(=O)N(Cc2ccccc2)Cc2ccccc2)n1 | 0.29 | -2.4
96 | O=C(Nc1cccc([N+](=O)[O-])c1)C1CC(=O)N(Cc2ccccc2)C1 (configuration not stated) | 0.56 | -2
107 | O=C(O)COc1ccc(/C=C/c2ccc3cccc([N+](=O)[O-])c3n2)cc1 | 0.91 | -0.05
100 | Nc1ncc(Br)cc1S(=O)(=O)NCCC(=O)N1CCN(c2ccccn2)CC1 | 1.6 | 1.4
99 | COc1cccc(/C=C2\SC(=S)N(C(C(=O)O)c3ccccc3)C2=O)c1OC (configuration not stated) | 3.4 | -1

A portion of the library; the hit share may differ from the screen's.
